# RecA splice inh = Mtb RecA intein splicing inhibition; P9WHJ3; cell-free RecA intein splicing, fluorescence; inhibition, %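 (about 9 µM by stock and volumes)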; 290,000 compounds, 0.75% hits; AID 2221; in the data active = inhibition above about 30%; inconclusive = no clear call, values can overlap the other calls;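 also: 0% = vehicle wells and 100% = reference inhibitor control wells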
# Target sequence (P9WHJ3 whole entry, looked up, canonical isoform): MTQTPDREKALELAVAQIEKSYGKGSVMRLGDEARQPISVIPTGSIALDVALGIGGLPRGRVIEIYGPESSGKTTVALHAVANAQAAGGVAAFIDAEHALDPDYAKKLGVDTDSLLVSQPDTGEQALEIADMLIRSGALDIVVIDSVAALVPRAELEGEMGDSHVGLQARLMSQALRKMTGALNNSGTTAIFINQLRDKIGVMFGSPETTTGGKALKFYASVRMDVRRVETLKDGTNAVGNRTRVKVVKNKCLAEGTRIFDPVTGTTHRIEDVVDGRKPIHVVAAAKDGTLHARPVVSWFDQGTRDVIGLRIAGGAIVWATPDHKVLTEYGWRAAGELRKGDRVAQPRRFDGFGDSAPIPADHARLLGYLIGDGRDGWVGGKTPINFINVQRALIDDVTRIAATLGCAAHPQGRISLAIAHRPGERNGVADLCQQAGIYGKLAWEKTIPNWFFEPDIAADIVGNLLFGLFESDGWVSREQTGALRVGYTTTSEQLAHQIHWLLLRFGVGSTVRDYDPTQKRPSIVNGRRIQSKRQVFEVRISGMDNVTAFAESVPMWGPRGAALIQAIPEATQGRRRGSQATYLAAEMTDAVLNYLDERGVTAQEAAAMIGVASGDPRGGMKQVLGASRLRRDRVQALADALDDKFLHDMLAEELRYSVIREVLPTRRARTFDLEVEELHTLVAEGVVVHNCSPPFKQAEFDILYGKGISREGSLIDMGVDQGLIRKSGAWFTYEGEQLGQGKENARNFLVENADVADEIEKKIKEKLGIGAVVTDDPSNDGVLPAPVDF
# Mtb betalactam = beta-lactam sensitization of Mtb H37Rv; M. tuberculosis H37Rv growth with meropenem, percent inhibition; hits of this screen are not shown here; 330,000 compounds, 0.27% hits; inhibition, % at 25 µM; AID 434955;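 active = about 74% or more and at least 40 points above the plate without the antibiotic, then above 30% in a dose series; inconclusive = first-round hits that could not be retested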;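 also: growth measured after seven days incubation then overnight dye step; 0% = bacteria only wells and 100% = bacteria with antibiotic; twin plates without the antibiotic show which effects depend on it; some results filed as inactive read as strong as hits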
# YopH inh = blocks Yersinia enterocolitica YopH tyrosine phosphatase; fluorescence Ex485/Em525; inhibition, %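 (about 10 µM by stock and volumes)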; 140,000 compounds, 0.16% hits; AID 898;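 active = inhibition of 50% or more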;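 also: controls were vehicle for no effect and minimum signal wells for full effect; inactives centre near -20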
# Arbovirus anti = blocks arbovirus infection; arbovirus infection cell-based antiviral screen; inhibition, % at 10 µM; 200,000 compounds, 0.37% hits; AID 1251;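 active = inhibition from about 30%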;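 also: bluetongue infection of BSR cells; cell survival read as ATP light after 72 h; 0% = infected wells without compound and 100% = uninfected wells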
# Mtb growth = M. tuberculosis H37Rv growth inhibitors, H37Rv strain (AID 1626); inhibition, % at 10 µM; hits with a dose series show IC50 in µM; 220,000 compounds, 0.95% hits; M. tuberculosis H37Rv growth inhibition; higher % means a stronger effect;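 active = confirmed in a dose series; inconclusive = inhibition above 80% but not taken into the dose series; inactive = below 80% or under 30% at every dose of the series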;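 also: bacteria incubated seven days before Alamar blue readout; 0% = bacteria only wells and 100% = bacteria with antibiotic wells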
# Arbovirus anti repeat = further read-out of Arbovirus anti, marked with its call; inhibition, %; measured here: 10K subset replicate screen; many hits read low in the repeat;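 first of two repeat runs on a subset; 0% = infected and 100% = uninfected wells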
# The depositor's hits bear a star; ? = inconclusive; nt = no result given; & = joins results of further samples.
SMILES,RecA splice inh,Mtb betalactam,YopH inh,Arbovirus anti,Mtb growth,others
Cc1cccc(C)c1OCc1cc(C(=O)NCc2ccc(Cl)s2)no1,4.2,-0.9,nt,nt,nt,
CCOc1ccccc1CNC(=O)Cn1ccc2cc(S(=O)(=O)N3CCC(C)CC3)ccc21,9.5,0.8,nt,nt,nt,
Cc1ccc(Cl)cc1Nc1nc(-c2sc(NC(=O)C(C)(C)C)nc2C)cs1,9.5,2.9,-30.5,2.2,2.3%,
CCOc1ccc(-c2c(C(=O)N/N=C/c3ccccc3)nnn2-c2nonc2N)cc1,0.4,-2.5,nt,nt,-5.3%,
Cc1ccc(S(=O)(=O)NCCC(=O)N2CCOCC2)cc1C,-1.2,-7.9,nt,nt,nt,
COc1ccc(Nc2nc(-c3cccs3)cs2)cc1,-3.5,?,-145.3,-8.4,6.9%,
CN(Cc1ccsc1)C(=O)CCc1nnc(CCCc2ccccc2)o1,-0.2,6.8,nt,1.5,2.0%,
O=C(CC12CC3CC(CC(C3)C1)C2)NCC(c1ccc(F)cc1)N1CCOCC1 (centres undefined),1.4,-0.6,nt,7.7,-0.3%,
Cc1cnc(NC(=O)Cn2cnc3c2c(=O)n(C)c(=O)n3C)s1,3.6,-7.5,nt,nt,0.2%,
COc1ccc(N(CC(=O)N2CCCCCC2)S(C)(=O)=O)cc1Cl,-0.2,-4.4,nt,nt,nt,
COc1ccc(CCNc2ncnc3cc(OC)c(OC)cc23)cc1OC,-1.4,nt,nt,7.8,-8.0%,
Cc1cccc(NS(=O)(=O)c2cc3c(cc2C)N(C)CCO3)c1,0.6,0.4,nt,nt,nt,
Cc1ccc(NC(=O)CC(O)(C(F)(F)F)C(F)(F)F)c(Br)c1,0.9,85.4,-36.6,12.1,1.4%,
Cc1cc(C)cc(OCC(=O)N/N=C/c2ccco2)c1,2.9,4.7,nt,-5.9,-2.6%,
O=c1cc(O)c2c(=O)n(-c3ccccc3)c3c(c2o1)CCCCCC3,-1.0,-11.5,-12.4,-18.2,-7.1%,
O=C(CC1C(=O)NCCN1C(=O)Nc1ccccc1)Nc1cccc(C(F)(F)F)c1 (centres undefined),-1.5,0.0,36.5,-8.0,-1.6%,
O=C(C[C@@H]1NS(=O)(=O)OC2CCCCC21)c1ccccc1 (some centres undefined),-2.3,-8.4,nt,nt,nt,
NS(=O)(=O)c1ccc(NC(=O)COC(=O)c2ccco2)cc1,1.2,-1.2,nt,1.5,0.9%,
Cc1cc(C)c2cc(CN(CCCO)S(=O)(=O)c3ccccc3F)c(=O)[nH]c2c1,0.7,-2.8,nt,nt,nt,
COC(=O)CSC1=C(C#N)C(c2ccc(C)cc2)C2=C(CCCC2=O)N1 (centres undefined),-12.6,99.5,4.3,2.5,21.2%,
Cc1ccc(N2C(=O)CC(N(O)C3CC(=O)N(c4ccc(C)cc4)C3=O)C2=O)cc1 (centres undefined),nt,2.0,-21.9,0.3,-11.2%,
CCc1nc(SCC(=O)NNC(=O)C2CCCCC2)c2ccccc2n1,4.9,5.9,-22.2,6.6,-4.7%,
Cc1ccc(C(=O)N/C(=C/c2cccc([N+](=O)[O-])c2)C(=O)NCC2CCCO2)cc1 (centres undefined),-0.4,-5.4,nt,4.4,-1.1%,
Cc1c(C(=O)c2cccc3ccccc23)c2cccc3c2n1[C@H](CN1CCOCC1)CO3,12.1,4.5,nt,nt,-0.7%,

# A draw from above in order of heavy-atom count, smallest number first.
SMILES,RecA splice inh,Mtb betalactam,YopH inh,Arbovirus anti,Mtb growth,others
Cc1cc(C)cc(OCC(=O)N/N=C/c2ccco2)c1,2.9,4.7,nt,-5.9,-2.6%,
O=C(C[C@@H]1NS(=O)(=O)OC2CCCCC21)c1ccccc1 (some centres undefined),-2.3,-8.4,nt,nt,nt,
Cc1ccc(NC(=O)CC(O)(C(F)(F)F)C(F)(F)F)c(Br)c1,0.9,85.4,-36.6,12.1,1.4%,
Cc1cccc(NS(=O)(=O)c2cc3c(cc2C)N(C)CCO3)c1,0.6,0.4,nt,nt,nt,
COc1ccc(N(CC(=O)N2CCCCCC2)S(C)(=O)=O)cc1Cl,-0.2,-4.4,nt,nt,nt,
O=c1cc(O)c2c(=O)n(-c3ccccc3)c3c(c2o1)CCCCCC3,-1.0,-11.5,-12.4,-18.2,-7.1%,
CN(Cc1ccsc1)C(=O)CCc1nnc(CCCc2ccccc2)o1,-0.2,6.8,nt,1.5,2.0%,
COc1ccc(CCNc2ncnc3cc(OC)c(OC)cc23)cc1OC,-1.4,nt,nt,7.8,-8.0%,
Cc1cc(C)c2cc(CN(CCCO)S(=O)(=O)c3ccccc3F)c(=O)[nH]c2c1,0.7,-2.8,nt,nt,nt,
O=C(CC1C(=O)NCCN1C(=O)Nc1ccccc1)Nc1cccc(C(F)(F)F)c1 (centres undefined),-1.5,0.0,36.5,-8.0,-1.6%,
Cc1c(C(=O)c2cccc3ccccc23)c2cccc3c2n1[C@H](CN1CCOCC1)CO3,12.1,4.5,nt,nt,-0.7%,

# (listing goes on)
SMILES,RecA splice inh,Mtb betalactam,YopH inh,Arbovirus anti,Mtb growth,others
O=c1c2ccc(Cl)cc2[nH]c(=S)n1CCCN1CCOCC1,10.3,1.6,nt,2.3,6.6%,
CCOc1ccc(C(C)NC(=S)NC2CCCCC2)cc1OCC (centres undefined),0.9,-6.1,nt,7.2,5.0%,
COc1cc2nc(CN(CCC(C)C)Cc3nc4cc(OC)c(OC)cc4c(=O)[nH]3)[nH]c(=O)c2cc1OC,-2.9,68.7,-28.4,-3.0,9.7%,
COc1ccc(CC(=O)Nc2cccc(SC)c2)cc1,0.4,-5.3,-14.5,6.7,2.1%,
O=C(/C=C/Nc1ccc(S(=O)(=O)Nc2ncccn2)cc1)c1ccc(Cl)c(Cl)c1,-4.6,10.8,-4.5,5.3,13.3%,
COc1cc(C)c(C)cc1S(=O)(=O)N1CCCCC1c1cccnc1 (centres undefined),1.3,-9.4,-14.0,2.0,-1.8%,
CCN(CC)S(=O)(=O)c1ccc(C)c(NC(=O)CNc2cccc(S(=O)(=O)N3CCCC3)c2)c1,-0.9,6.3,nt,nt,nt,
Cc1ccc(SCc2cn3cc(Cl)ccc3n2)cc1,2.6,-6.3,nt,nt,2.5%,
COc1ccc(NC(=O)CSc2nnc(Cn3cnc4ccccc43)o2)cc1,-0.8,5.0,nt,9.4,4.8%,
O=C(O)CC1C(=O)NCCN1Cc1cccs1 (centres undefined),-0.1,0.1,nt,3.1,3.1%,
O=C(Nc1cccc(O)c1)c1ccccc1,0.1,0.9,-30.7,5.1,1.2%,
CC1CCCCN1S(=O)(=O)c1ccc(C(=O)Nc2nnc(C3CC3)o2)cc1 (centres undefined),-0.3,90.5,nt,nt,nt,
Cc1cnc(NC(=O)c2cc3c(C)nn(Cc4ccccc4Cl)c3s2)s1,0.3,-0.5,-29.5,-6.0,12.8%,
CC(C)N(Cc1nc(-c2ccccc2)no1)C(=O)C(Cl)(Cl)Cl,nt,6.2,nt,5.1,5.4%,
Cc1cc(C)nc(NS(=O)(=O)c2ccc(N)cc2)n1,-3.1&4.8,-0.8&4.3,-51.6,0.3,nt,
COc1ccc(OC)c2c1cc(C(=O)N[C@@H](C)C(=O)N[C@@H](C(=O)O)c1ccccc1)n2C,2.3,-2.1,nt,nt,nt,
CN(CCC#N)C(=O)COc1ccc(Br)cc1Cl,-7.5,-5.8,nt,2.3,3.0%,
CCCOc1ccccc1N/C(=N/c1nc(C)cc(C)n1)NC(=O)COc1ccc(OC)cc1,-2.7,-6.4,-5.2,8.6,3.4%,
Cc1ccc(C)c(Cn2nnc3c(=O)[nH]c(C(=O)NCc4ccco4)nc32)c1,7.8,?,-13.9,13.0,-3.1%,
N#CCCn1c(-c2nonc2NC(=O)c2ccccc2Cl)nc2ccccc21,-0.4,1.7,-21.9,3.7,-0.5%,
CC(=O)OCCNc1cc(Sc2nc3ccccc3[nH]2)c2nonc2c1[N+](=O)[O-],13.8,99.5,-48.4,-43.9,-3.2%,
O=C(CN(C(=O)CCC(=O)Nc1nccs1)c1cccc(F)c1)NCc1ccc(F)cc1,0.0,0.1,nt,nt,nt,
CCOC(=O)CCCCCNC(=O)c1c(O)[nH]c(=O)[nH]c1=O,-1.3,0.7,nt,nt,-6.4%,
Nc1cc(=O)[nH]c(SCc2ccc(Cl)cc2Cl)n1,-0.7,0.5,nt,nt,nt,
O=C(O)Cn1cc(/C=C2\SC(=O)N(c3ccccc3)C2=O)c2ccccc21,-12.5,0.0,nt,-12.2,0.7%,
CCOc1ccc(CN(C)C(=O)CNC(=O)C2CCCCC2)cc1,-0.2,4.6,nt,nt,nt,
COC(=O)C(C)n1cnc2c(nnn2-c2cccc(OC)c2)c1=O (centres undefined),0.2,-4.7,nt,nt,nt,
CCC(=O)Nc1sc(C(=O)Nc2ccccc2)c(C)c1C(=O)OC,-3.3,-0.1,nt,-22.8,-1.2%,
CCOc1ccc2c(c1)ncn2Cc1ccccc1,0.4,-1.6,nt,-22.6,1.5%,
CCN(CC)CCSc1nc2ccccc2c(=S)n1-c1ccccc1,-0.3,-4.0,nt,-33.1,-0.5%,
COc1cc2c(cc1OC)C(COc1ccc3c(C)cc(=O)oc3c1)N(C(=O)c1ccco1)CC2 (centres undefined),-0.7,7.2,16.4,-16.1,-3.5%,Arbovirus anti repeat=-11.5
Cc1nnc2nc(-c3ccccc3)nc(-c3ccccc3)n12,3.5,7.1,nt,nt,4.2%,
COc1cc(C(=O)NCC(c2ccco2)N2CCc3ccccc32)cc(OC)c1OC (centres undefined),3.5,-2.8,nt,nt,nt,
CCOCCCNC(=O)C(c1ccc(OC)cc1)N(Cc1cccs1)C(=O)c1ccccc1O (centres undefined),-1.0,0.1,nt,5.6,-0.7%,
O=C1NC(=S)N/C1=C\c1ccc(N2CCOCC2)cc1,nt,4.2,nt,-1.6,-8.9%,
CCN(c1ccccc1)S(=O)(=O)c1ccc(Cl)c(NC(=O)CSc2nnc(C)s2)c1,1.6,-9.7,nt,-8.5,10.8%,
Cc1cc(Cl)ccc1OCC(=O)Nc1ccccc1C(=O)N1CCOCC1,-0.3,-0.7,nt,nt,nt,
CCOc1ccc(Cl)cc1/C=N/NC(=O)CNC(=O)c1ccccc1,5.2,5.5,-5.0,-19.3,1.9%,
O=C(Cn1cnc2cc(Cl)ccc2c1=O)Nc1ccc2c(c1)OCO2,-4.1,-11.9,-16.7,0.3,-0.5%,
c1cncc(-c2ccnc3ncnn23)c1,-0.7,-0.5,-14.1,-6.3,0.8%,
Cc1cc(C)nc(NC(=O)c2ccc(C)o2)n1,-2.6,4.0,nt,nt,nt,
CS(=O)(=O)Nc1ccc2c(c1)C(=O)OC2,-1.8,1.3,-32.2,-3.5,-6.1%,
COc1cccc(-c2noc(-c3cccs3)n2)c1,3.2,3.1,-31.8,4.1,-9.0%,
CC(C)C[C@@H](NC(=O)[C@H]1CCCN1C(=O)Cc1ccccc1)C(N)=O,-0.2,5.1,nt,nt,nt,
Cc1ccc(N2C(=O)C(Cl)=C(N3CCOCC3)C2=O)cc1Cl,73.8*,92.5,-26.1,14.4,63.1%,
N#CC[C@H](Cc1ccccc1)N1CC[C@@H](NC(=O)OCc2ccccc2)CCC1=O,0.9,-4.2,nt,nt,nt,
COC(=O)c1ccc(-n2cncn2)c(F)c1,-3.0,-2.2,-26.2,-1.8,-6.9%,
Cc1nc2cccc(C(=O)NC3CCCCC3)c2o1,-2.0,27.3,4.2,-3.6,-1.9%,
Cc1cccc(CSc2cccc3cccnc23)c1,4.4,99.5,-14.4,-43.3,-4.1%,
FC(F)(F)c1cccc(OCc2nnc3n2CCC3)c1,-1.0,-7.4,nt,8.2,-1.0%,
O=C(Cn1cnc2ccccc2c1=O)c1ccccc1,-1.2,-2.3,-18.5,1.1,-1.2%,
COc1cc(NC(=O)c2cccs2)c(C(=O)OCC(=O)NC(=O)NC(C)(C)C)cc1OC,3.8,99.4,-1.1,3.1,48.4%,
COc1cc(-c2nn3c(-c4cccc(C)c4)nnc3s2)cc(OC)c1OC,-3.5,?,-36.8,-8.7,2.2%,
COCCNC(=O)C1Nc2ccc(OC(F)(F)F)cc2C2C=CCC12 (centres undefined),0.8,33.8,nt,nt,-6.8%,

# Source: PubChem BioAssay

# Not all compounds are listed; count on the stated rates, not on these rows.
